From PubChem BioAssay
HSV replic up: enhancers of HSV replication in host cells, fold increase, host cell viability; AID 1956, 2009; actives 0.005% (n = 220,000); maximum fold increase; HSV replication augmentation in cells;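 active = peak rise of 1.5-fold or more in the series; inconclusive = self-fluorescent or not available for retest; tested in PC3 cells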;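 note: first round at 10 µM; read as green reporter fluorescence; hits show the peak of a series up to 25 µM; 1 = signal of infected wells without compound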
HSV replic up primary fold: also measured in HSV replic up; calls as there; fold increase; compound at 10 µM; measured here: primary screen fold increase 10 uM; tested in PC3 cells;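 GFP signal in the first replicate; 1 = infected wells without compound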
Starred values were filed as active, the others as inactive; i = inactive; ? = inconclusive; . = no result given. The list is partial, so the mix of outcomes need not match the whole.

No.	structure	HSV replic up	HSV replic up primary fold
1	CC1(c2nnc(-c3ccccc3)o2)CC(c2ccccc2)=NO1 (stereo unspecified)	i	1.01
2	C#CCNC(=O)C1=C[C@@H](c2ccccc2)C[C@@H](OCCCCO)O1	i	0.69
3	COc1ccc([C@H]2/C=C\CN(Cc3ccc(N(C)C)cc3)[C@@H](C)C(=O)N2Cc2ccc(F)cc2)cc1	i	1.05
4	CCC(c1nnnn1Cc1ccco1)N(CCc1ccccc1)Cc1cc2cc(C)ccc2[nH]c1=O (stereo unspecified)	i	1.11
5	COc1ccc(-c2ccc3oc(-c4ccc(OC)cc4)c(C#CCCO)c3c2)cc1	i	0.52
6	O=C(NCc1ccccc1)c1onc(CSc2ccncc2)c1C(=O)NCc1ccccc1	i	0.71
7	CCOC(=O)[C@@H]1[C@H]2COc3ccccc3[C@@H]2N2C(=O)N(c3cccc(F)c3)C(=O)[C@]12C	i	0.71
8	O=C1c2ccccc2S(=O)(=O)c2cc(N3CCN(c4ccccc4)CC3)ccc21	i	0.85
9	O=c1c2ccccc2nc(SCc2nnc(-c3ccccc3)o2)n1-c1ccccc1	i	0.82
10	COC(=O)C1=C[C@@H](C(=O)OC)[C@@H]2C3=C(C(=O)[C@@]2(C)NC(=O)c2ccccc2)[C@H](c2ccccc2)n2c(=O)n(-c4ccccc4)c(=O)n2[C@@H]3C1	i	0.82
11	CCCCCC[C@@H]([C@@H](C)O)n1cnc2c(N)ncnc21	i	0.87
12	C[C@H]1CC[C@]2(O[C@@H](CCO)C[C@@H](O)[C@@H]2O)O1	i	0.79
13	OCC[C@H]1C[C@H](O)[C@@H](O)[C@]2(CCCO2)O1	i	0.96
14	COc1cc2sc3ccc(C#Cc4ccccn4)cc3c(=O)c2cc1OC	i	0.66
15	COc1cccc(N2[C@@H](CC(C)=O)c3ccc(/C=C/C(C)=O)cc3S2(=O)=O)c1	i	0.7

In a second layout: entries from further up
Results follow in this order: HSV replic up, HSV replic up primary fold
8) O=C1c2ccccc2S(=O)(=O)c2cc(N3CCN(c4ccccc4)CC3)ccc21
→ i, 0.85
9) O=c1c2ccccc2nc(SCc2nnc(-c3ccccc3)o2)n1-c1ccccc1
→ i, 0.82
10) COC(=O)C1=C[C@@H](C(=O)OC)[C@@H]2C3=C(C(=O)[C@@]2(C)NC(=O)c2ccccc2)[C@H](c2ccccc2)n2c(=O)n(-c4ccccc4)c(=O)n2[C@@H]3C1
→ i, 0.82
11) CCCCCC[C@@H]([C@@H](C)O)n1cnc2c(N)ncnc21
→ i, 0.87
12) C[C@H]1CC[C@]2(O[C@@H](CCO)C[C@@H](O)[C@@H]2O)O1
→ i, 0.79
13) OCC[C@H]1C[C@H](O)[C@@H](O)[C@]2(CCCO2)O1
→ i, 0.96

A draw from above in order of molar mass, high to low:
No.	structure	HSV replic up	HSV replic up primary fold
3	COc1ccc([C@H]2/C=C\CN(Cc3ccc(N(C)C)cc3)[C@@H](C)C(=O)N2Cc2ccc(F)cc2)cc1	i	1.05
4	CCC(c1nnnn1Cc1ccco1)N(CCc1ccccc1)Cc1cc2cc(C)ccc2[nH]c1=O (stereo unspecified)	i	1.11
8	O=C1c2ccccc2S(=O)(=O)c2cc(N3CCN(c4ccccc4)CC3)ccc21	i	0.85

Further results:
No.	structure	HSV replic up	HSV replic up primary fold
16	CCN1C(=O)N[C@@H](c2ccc(Br)cc2)C(C(C)=O)=C1C	i	1.01
17	CC(C)=CCc1c(O)cc(O)c2c1OC(c1ccc(O)cc1)CC2=O (stereo unspecified)	i	1.11
18	CC(C)C[C@H]1C(=O)N2CCC[C@H]2[C@]2(O)O[C@](NC(=O)C3C=C4c5cccc6[nH]c(Br)c(c56)C[C@H]4N(C)C3)(C(C)C)C(=O)N12 (stereo partly specified)	i	0.84
19	O=C1c2ccccc2S(=O)(=O)c2cc(C(=O)N3CCCC3)ccc21	i	1.01
20	CCCCCCCCCCCCN1[C@@H](CC(C)=O)c2cc(C(F)(F)F)ccc2S1(=O)=O	i	1.05
21	C=CC1=C(C(=O)O)N2C(=O)[C@@H](NC(=O)/C(=N/OCC(=O)O)c3csc(N)n3)[C@H]2SC1	i	0.81
22	Nc1c(Cl)cc(-c2csc(NC(CO)c3nc4ccccc4n3CCOCCO)n2)cc1Cl (stereo unspecified)	i	0.9
23	Cn1cc(Cl)c(C(=O)N(Cc2ccccc2)c2ccccn2)n1	i	0.96
24	CC1(OC(=O)C2CCCC2)C(=O)C=C2C=C3CCCN3C=C2C1=O (stereo unspecified)	i	0.88
25	CCN1C(=O)[C@@H]2[C@H](C1=O)[C@@H]1CC(C(=O)OC)=C[C@@H](C(=O)OC)C3C1=C(C(=O)C3(CC)CC)[C@@H]2C (stereo partly specified)	i	0.88
26	Cc1ccc(-n2c(=O)[nH]cc(C(=O)Nc3ccc4c(c3)OCO4)c2=O)cc1C	i	0.9
27	COc1cccc(Nc2nc(NCCO)nc(N3CCCC3)n2)c1	i	0.72
28	COc1ccc(-c2csc(NC(CO)c3nc4ccccc4n3Cc3ccc(C)cc3)n2)cc1 (stereo unspecified)	i	0.86
29	CC(C)(C)[C@@H]1C=C(C(=O)O)O[C@H](OCCCCO)C1	i	0.96
30	CCOC(=O)c1[nH]c(C)c(/C(O)=C2\C(=O)C(=O)N(CCN(C)C)C2c2ccco2)c1C (stereo unspecified)	i	0.94
31	CNC(=O)C1(C)C=CC2(CCCCC2)N1C(=O)OC (stereo unspecified)	i	0.87
32	Nc1nc2c(nc(Br)n2[C@@H]2O[C@@H]3COP(=O)(O)O[C@H]3[C@H]2O)c(=O)[nH]1	i	0.95
33	CC1(O)C(=O)C=C2C=C(C3CC3)OC=C2C1=O (stereo unspecified)	i	0.86
34	CC(Nc1nc(-c2ccc(F)cc2)cs1)c1nc2cc(Cl)c(Cl)cc2n1CCOCCO (stereo unspecified)	i	0.89
35	COc1ccc2c(c1)cc(C)c1nnc(SCC(=O)N3CCN(C(=O)c4ccco4)CC3)n12	i	0.94
36	COCOc1ccc(/C=C2/Oc3cc(OCOC)cc(OCOC)c3C2=O)c(OCOC)c1	i	1.16
37	Nc1c(Cl)cc(-c2csc(N3CCCC3c3nc4cc(Cl)c(N5CCCCC5)cc4n3CCCO)n2)cc1Cl (stereo unspecified)	i	0.61
38	CC(C)(C)[C@H]1C=C(C(=O)Nc2ccccc2)O[C@@H](OCCCCO)C1	i	0.67
39	COc1ccc([C@H]2/C=C\CN(C(=O)c3ccccc3)[C@@H](C)C(=O)N2Cc2ccc(F)cc2)cc1	i	0.98
40	CC(=O)NCCc1nc(-c2ccc(Cl)cc2)no1	i	1.02
41	CC1=C(C(=O)Nc2ccccc2)C(c2ccccn2)n2nc(CCCO)nc2N1 (stereo unspecified)	i	1.09
42	O=C(Nc1ccc(Cl)c(C(F)(F)F)c1)[C@@H]1CC=C[C@@H]2CCN(Cc3ccc(Cl)c(Cl)c3)C(=O)[C@@H]21	i	1.11
43	COCCN1C(=O)N[C@@H](c2ccccc2)[C@@H](C(=O)OC)[C@H]1C	i	0.89
44	CC(C)CCNC(=O)c1onc(CSc2ccccc2)c1C(=O)NCCC(C)C	i	1.1
45	CN1CCN2c3ncccc3Cc3ccccc3C2C1 (stereo unspecified)	i	1.02
46	CC(C)(C)OC(=O)NCCCCC1=CC2=CC(=O)C(C)(OC(=O)c3ccco3)C(=O)C2=CO1 (stereo unspecified)	i	1.01
47	COC(=O)CCC(=O)OC1(C)C(=O)C2=CN(Cc3ccc(OC)cc3)C(c3ccc(OC)cc3)=CC2=C(Br)C1=O (stereo unspecified)	i	0.98
48	C[C@@H]1CC[C@@]2(O[C@@H](CCO)C[C@H](O)[C@H]2O)O1	i	0.74
49	CCOC(=O)O[C@]1(C(=O)OCCl)CC[C@H]2[C@@H]3CCC4=CC(=O)C=C[C@]4(C)[C@H]3[C@@H](O)C[C@@]21C	i	0.91
50	CCC(=O)Nc1ccccc1Nc1cc(C#N)c(C#N)cc1[N+](=O)[O-]	i	1.05
51	CC(=O)Oc1ccccc1C(=O)Nc1ccccc1	i	0.99
52	CCCC[C@@H]1C[C@H]1[C@@H](NC(=O)c1cccs1)c1ccc(C(F)(F)F)cc1	i	0.78
53	COc1ccc(C2NC(=O)N(CCCC(=O)O)C(C)=C2C(=O)OCc2ccccc2)cc1 (stereo unspecified)	i	0.91
54	CCOC(=O)[C@H](CCc1ccccc1)N[C@H]1CCc2ccccc2N(CC(=O)O)C1=O	i	0.97
55	CC1=C(c2ccccc2)CCC1=O	i	1.05
56	Cc1ccc(C2=NOC(C)(c3nnc(Cc4ccccc4)o3)C2)cc1 (stereo unspecified)	i	0.91
57	C[C@@H]1CC[C@]2(O[C@H](CCO)C[C@H](O)[C@H]2O)O1	i	0.64
58	CC1=C(C(=O)OCc2ccccc2)C(c2ccccc2OS(=O)(=O)c2ccccc2[N+](=O)[O-])NC(=O)N1CCCC(=O)O (stereo unspecified)	i	0.73
59	O=C(O)/C=C/c1ccc(Cn2ccnc2)cc1	i	0.74
60	CC(=O)S[C@@H]1CC2=CC(=O)CC[C@]2(C)[C@H]2CC[C@@]3(C)[C@@H](CC[C@@]34CCC(=O)O4)[C@H]12	i	0.56
61	CCC(=O)OC1(C)C(=O)C=C2C=C(c3ccc(C#N)cc3)OC=C2C1=O (stereo unspecified)	i	0.71
62	C=Cc1c(C)c2cc3[nH]c(cc4nc(cc5nc(cc1[nH]2)C(C)=C5CCC(=O)O)C(CCC(=O)O)=C4C)c(C)c3C=C	i	0.8
63	O=C(NCc1ccccc1)c1onc(CSc2ccc(F)cc2)c1C(=O)NCc1ccccc1	i	0.85
64	C=CCn1c(SCc2cc(=O)n3ccsc3n2)nc2scc(C3CC3)c2c1=O	i	0.8
65	CCC(C)c1nc2ccsc2c(N2CCOC2=O)c1-c1ccccc1 (stereo unspecified)	i	0.8
66	O=C1c2ccccc2S(=O)(=O)c2cc(N3CCC4(CC3)OCCO4)ccc21	?	.
67	O=c1c2ccccc2oc2ccc(-c3ccc4[nH]ccc4c3)cc12	i	1.01
68	CN(C)CCCN1C(=O)C(=O)/C(=C(/O)c2ccncc2)C1c1ccccc1 (stereo unspecified)	i	1.17
69	C=CC1CN(C(=O)OCC(Cl)(Cl)Cl)C2CC3c4ccc(OC)cc4NC3C3CC1C2CO3 (stereo unspecified)	i	1.05
70	COC(=O)Nc1nc2ccc(C(=O)c3cccs3)cc2[nH]1	i	0.53
71	CC(=O)OC1C([N+]2(C)CCCCC2)C[C@H]2C3CC[C@H]4C[C@H](OC(C)=O)C([N+]5(C)CCCCC5)CC4(C)[C@H]3CCC12C (stereo partly specified)	i	1.14
72	CC(C)CC(CO)N1CCN(C(=O)c2ccc(Cl)c(Cl)c2)CCC1=O (stereo unspecified)	i	1.18
73	CCOC(=O)c1ccc(OC(=O)CCCCCN=C(N)N)cc1	i	0.96
74	Nc1ccc(O)cc1	i	0.62
75	Cc1nccn1CC1CCc2c(c3ccccc3n2C)C1=O (stereo unspecified)	i	0.94

Continued.
No.	structure	HSV replic up	HSV replic up primary fold
76	CC(C)N=c1cc2n(-c3ccc(Cl)cc3)c3ccccc3nc-2cc1Nc1ccc(Cl)cc1	i	0.9
77	O=c1c2ccccc2oc2ccc(C#CC3(O)CCCCC3)cc12	i	0.71
78	CC(C)C(=O)NCCc1nc(-c2ccc(Cl)cc2)no1	i	0.92
79	CC1(C)C[C@H](O)[C@@]23C[C@@H](OC2=O)[C@]2(C)C(=CCC4[C@@]5(C)CC[C@H](O)C(C)(C)C5CC[C@]42C)[C@@H]3C1 (stereo partly specified)	i	0.9
80	C[C@H]1C=C(C(=O)NCc2nc3ccccc3[nH]2)O[C@@H](OCCCCO)C1	i	0.73
81	CCOC(=O)CN(C)C(=O)C1CCCN1C(=O)OC(C)(C)C (stereo unspecified)	i	0.96
82	CCCCC(=O)N1C/C=C\[C@H](c2ccc(OC)cc2)N(Cc2ccc(F)cc2)C(=O)[C@@H]1C	i	0.92
83	O=C(O)C1=C[C@H](c2ccc3c(c2)OCO3)C[C@H](OCc2ccc(CO)cc2)O1	i	0.76
84	CC(C)(C)OC(=O)NCCCC1=CC2=CC(=O)C(C)(OC(=O)C3CCCC3)C(=O)C2=CO1 (stereo unspecified)	i	0.94
85	COC(=O)CCC(=O)OC1(C)C(=O)C2=CN(Cc3ccc4c(c3)OCO4)C(c3ccc(OC)cc3)=CC2=C(Br)C1=O (stereo unspecified)	i	1.03
86	O=C(NCc1ccccc1)c1onc(CSc2ccc(F)c(F)c2)c1C(=O)NCc1ccccc1	i	1.02
87	Cc1nn(-c2ccccc2)c2sc(C(=O)OCN3C(=O)c4ccccc4C3=O)cc12	i	0.93
88	CC(O)(CC(=O)O)CC(=O)O	i	0.7
89	O=C(NCc1ccccc1)C1(C(F)(F)F)C/C(=C\CCO)CCCO1 (stereo unspecified)	i	0.82
90	O=C(O)c1ccc(-c2noc(-c3ccccc3F)n2)cc1	i	0.88
91	C[C@@H]1CCC[C@@]2(O[C@@H](CCO)C[C@@H](O)[C@@H]2O)O1	i	0.88
92	COc1ccc(Oc2ncnc3c2oc2ccc(Br)cc23)cc1	i	0.8
93	CC1(OC(=O)C2CCCC2)C(=O)C=C2C=C(C3CC3)OC=C2C1=O (stereo unspecified)	i	0.93
94	O=C1c2ccccc2S(=O)(=O)c2cc(C(=O)N3CCN(c4ccc(Cl)cn4)CC3)ccc21	i	0.8
95	Nc1cccc2c1C(=O)N(c1ccccc1)C2=O	i	1.01
